Compound activity from PubChem.
Bead autofluor: flagged as autofluorescent in microsphere protease counterscreen; AID 624483; fluorescence intensity (test concentration not listed); compound autofluorescence counterscreen, microsphere flow cytometry; active compounds read high; 360,000 tested, 3.1% active;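 active = at least 3 SD above the mean of all compounds, about 16000 in these data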;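 note: 100 nL of 1 mM stock went into each well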
The depositor's hits bear a star. This is a subset, so the mix of outcomes need not match the whole.

No.	SMILES	Bead autofluor
1	CC1=C(C(=O)Nc2cccc(C(=O)NCC(C)c3ccccc3)c2)SCCO1 (stereo unspecified)	3701
2	COCCNC(=O)C1CCCN(C(=O)c2cccnc2Oc2ccccc2)CC1 (stereo unspecified)	2889
3	NC(c1ccccc1)c1csc(NC(=O)NCC2CCCCC2)n1 (stereo unspecified)	2883
4	CCOc1ccccc1N1CCN(CC(=O)N(C)CC(=O)Nc2ccccc2CC)CC1	3952
5	CCCCn1c(N)c(N(CC(C)C)C(=O)CCN2C(=O)C3CC=CCC3C2=O)c(=O)[nH]c1=O (stereo unspecified)	4031
6	Cc1ccccc1C(=O)N(C)[C@H]1C[C@H]2c3[nH]c4ccccc4c3CCN2C[C@H]1[C@H](C)O	6764
7	O=C(Nc1cccc(C(F)(F)F)c1)C1Cc2c(-c3ccc(Cl)cc3)ccnc2O1 (stereo unspecified)	3059
8	CN1CCN(c2ncnc3c2ncn3[C@H]2CN(Cc3ccncc3)C[C@@H](CO)O2)CC1	2961
9	CC(C)C[C@H]1CN(CCCC[C@H]2CNC(=O)C(=O)N2CCC2CCCCC2)C(=O)C(=O)N1CCc1ccccc1	5751
10	COc1ccc(NC(=O)c2cc(-c3ccc(F)cc3OC(C)C)n[nH]2)cn1	2935
11	O=C(NCc1ccccc1)c1cc(C2CCCCN2C(=O)OCCF)on1 (stereo unspecified)	3606
12	CN(C)C1CN(Cc2cn(Cc3ccc(C(F)(F)F)cc3)nn2)S(=O)(=O)C1 (stereo unspecified)	5430
13	CC(C)(C(=O)N1CCC1(C)C(=O)NS(=O)(=O)c1cccc(F)c1)c1ccccc1 (stereo unspecified)	3865
14	Nc1[nH]c(C(=O)c2ccccc2)c(-c2ccncc2)c1C(=O)NCc1ccc(Cl)cc1	5776
15	CCOc1ccc(-c2cc(C(=O)NC3CCCCC3)[nH]n2)c(C)c1	3454
16	COC(=O)CC1CC2(C(=O)OC)c3[nH]c4ccccc4c3CCN2C1=O (stereo unspecified)	4109
17	CCc1nc2ccc(C(=O)NCCC(C)C)cn2c1N(CC)CCN(C)C	3578
18	Cc1nc2c(OCc3ccccc3)cccn2c1N(C)C(=O)C1CCCCC1	3834
19	COc1ccc(C(=O)OCc2cc(=O)oc3cc(C)ccc23)cc1S(=O)(=O)N1CCOCC1	2751
20	COc1ccc2c(c1)c1c(c(=O)n(-c3ccc(C)cc3)c(=O)n1CC(=O)NCC1CCCO1)n2C (stereo unspecified)	3748
21	CCN(CC)c1c(C)nc2ccc(C(=O)NCc3ccc4c(c3)OCO4)cn12	3883
22	CC(=O)Nc1ccc(CN2C(=O)C(C)(C)ON=C2c2ccc(NC(C)=O)cc2)cc1	5504
23	CC(C)C1C(=O)N(Cc2cn(CC3CCCCC3)nn2)CCS(=O)(=O)N1Cc1ccc(-c2cccc(CO)c2)cc1 (stereo unspecified)	3621
24	CC(=O)Nc1nc(-c2ccc(-c3ccccc3)cc2)cs1	3620
25	Cc1cc(C)nc(Nc2nc(C(N)c3ccccc3)cs2)n1 (stereo unspecified)	3410
26	CN(C)Cc1csc(Nc2ccc(C(F)(F)F)cn2)n1	3612
27	COc1ccc(NC(=O)C2(C)CCN2Cc2ccc(OC(C)C)cc2)cc1OC (stereo unspecified)	4251
28	CCOC(=O)c1c(C)[nH]c(C(=O)OCc2nc3ccsc3c(=O)[nH]2)c1C	3867
29	CC1(C(=O)NS(=O)(=O)c2cccc(OC(F)F)c2)CCN1C(=O)C/C=C/c1ccccc1 (stereo unspecified)	3596
30	CC(O)(c1ccccc1)c1nc(-c2ccc(Cl)cc2)cs1 (stereo unspecified)	3166

A draw from above in order of length of the SMILES, lowest first:
No.	SMILES	Bead autofluor
26	CN(C)Cc1csc(Nc2ccc(C(F)(F)F)cn2)n1	3612
24	CC(=O)Nc1nc(-c2ccc(-c3ccccc3)cc2)cs1	3620
30	CC(O)(c1ccccc1)c1nc(-c2ccc(Cl)cc2)cs1 (stereo unspecified)	3166
16	COC(=O)CC1CC2(C(=O)OC)c3[nH]c4ccccc4c3CCN2C1=O (stereo unspecified)	4109
21	CCN(CC)c1c(C)nc2ccc(C(=O)NCc3ccc4c(c3)OCO4)cn12	3883
28	CCOC(=O)c1c(C)[nH]c(C(=O)OCc2nc3ccsc3c(=O)[nH]2)c1C	3867
23	CC(C)C1C(=O)N(Cc2cn(CC3CCCCC3)nn2)CCS(=O)(=O)N1Cc1ccc(-c2cccc(CO)c2)cc1 (stereo unspecified)	3621

(further entries)
No.	SMILES	Bead autofluor
31	N#Cc1cccc(NC(=O)c2cc(C3CCCCN3C(=O)CCc3ccccc3)on2)c1 (stereo unspecified)	4292
32	O=C(Nc1ccc(C(O)c2ccccc2)cc1)[C@@H]1O[C@H](CO)[C@H](O)[C@H](O)[C@H]1O (stereo partly specified)	3082
33	COc1ccccc1N1CC(C(=O)OCC(=O)c2c(N)n(C)c(=O)n(C)c2=O)CC1=O (stereo unspecified)	3865
34	Cn1c(=O)c2cc(NC(=O)CCc3ccccc3)ccc2n1-c1ccccc1F	3740
35	CCCNC(=O)c1cc2c(c(-c3cccc(-c4cc5ccccc5o4)c3)n1)[C@H](CCO)N(C(=O)NC(C)C)C2	6772
36	Nc1ccn([C@@H]2O[C@H](C(=O)N[C@H](CO)Cc3ccccc3)[C@@H](O)[C@H]2O)c(=O)n1	4291
37	CCOC1=C2CN(S(=O)(=O)c3ccc(C)cc3)[C@H](c3ccccc3)C[C@@H]2N(S(C)(=O)=O)[C@H](c2ccccc2)C1	6208
38	O=C(NCCS(=O)(=O)N1CCN(c2ccccc2)CC1)C12CC3CC(CC(C3)C1)C2	3868
39	C[C@H]1CN([C@@H](C)CO)S(=O)(=O)c2ccc(Br)cc2O[C@@H]1CN(C)S(=O)(=O)c1ccccc1	3648
40	NC(c1ccccc1)c1cccs1 (stereo unspecified)	4379
41	CC(=O)Nc1ccc(S(=O)(=O)N2Cc3ccccc3-n3nncc3C2)cc1	3497
42	COc1ccc([C@H]2CN(c3ccc(OC)cc3)C(=O)[C@@H]2CC(=O)Nc2ccccc2)cc1	3872
43	CCc1nc2ccc(C(=O)NCc3ccc4c(c3)OCO4)cn2c1N(CC)CCOC	3721
44	CCN(CC)C(=O)C1=C(C)N(Cc2ccc(F)cc2)C(=O)C(CC(=O)NCC2CCCCC2)C1 (stereo unspecified)	3314
45	CC1CCC2(CC1)NC(=O)N(CC(=O)Nc1cccc(S(=O)(=O)N(C)c3ccccc3)c1)C2=O (stereo unspecified)	3966
46	Cc1ccccc1-c1cnc(C(O)c2ccc(F)c(F)c2)[nH]1 (stereo unspecified)	3655
47	O=[N+]([O-])c1ccc(NN=C2CC3CCC2C3)c([N+](=O)[O-])c1 (stereo unspecified)	5757
48	CC1(C(=O)NS(=O)(=O)c2ccc(F)cc2F)CCN1C(=O)Cc1cc(F)ccc1F (stereo unspecified)	2901
49	CCCC(=O)N1CCC1(C)C(=O)NS(=O)(=O)c1ccccc1Cl (stereo unspecified)	3388
50	C#CCNC(=O)C[C@@H]1C[C@@]2(C(=O)OCC)CCC=C2N(Cc2cccc3ccccc23)C1=O	5953
51	Cc1cccnc1C(NC(=O)C1CCN(CCCOc2ccc(F)cc2)CC1)c1ccccc1 (stereo unspecified)	4006
52	CC1=C(C(=O)N(C(C)C)C(C)C)CC(CC(=O)NCc2cccc3ccccc23)C(=O)N1Cc1ccccc1 (stereo unspecified)	4102
53	c1ccc(COc2ccc(-c3cc4nc(NCCN5CCOCC5)ccn4n3)cc2)cc1	4291
54	CN(Cc1ccc(Cl)cc1)C(=O)c1[nH]c(C(F)(F)F)nc1-c1ccccc1	6206
55	CN(C)CCNc1nc(-c2ccccc2CO)c2sccc2n1	3552
56	Clc1ccccc1NN(Cc1ccccn1)c1ccccc1Cl	2913
57	COc1ccc(-c2nc3c(C)cc(Br)cn3c2Cc2cccc(F)c2)cc1OC	4331
58	COc1ccc(CCNC(=O)Nc2nc(C(N)Cc3ccccc3)cs2)cc1OC (stereo unspecified)	4201
59	NNC(=O)Cc1cccc2ccc(Cl)cc12	3504
60	Cc1cc(C(F)(F)F)c2c(N)c(C(=O)NCc3ccc(Cl)cc3)sc2n1	5645
61	CC(C)(C)NC(=S)N1CCC2CC1c1cc(-c3ccc4c(c3)OCO4)ccc12 (stereo unspecified)	4674
62	CC(CCl)n1c(=O)c2ccccc2n1C(=O)c1ccccc1 (stereo unspecified)	4487
63	OC[C@@H]1CN(Cc2ccc(F)cc2)C[C@H](n2cnc3c(N4CCN(c5ccccc5)CC4)ncnc32)O1	3497
64	Cc1nc(NC(=O)c2ccccc2)sc1-c1cc(C(=O)N2CCOCC2)nn1Cc1ccccc1	3504
65	CC1(c2nnnn2-c2ccc3c(c2)OCCO3)CCC(=O)N1C1CCN(Cc2ccccc2)CC1 (stereo unspecified)	5260
66	COc1ccc(Cl)cc1-c1cc(C(=O)NCC2CCCCC2)[nH]n1	2932
67	CCCCCC(=O)N1C[C@@H](n2cc(C3CC3)nn2)[C@H](O)C[C@@H]1c1ccccc1	3738
68	C[C@H]1CN([C@@H](C)CO)C(=O)CCCn2cc(nn2)CO[C@@H]1CN(C)C(=O)Nc1ccccc1C(F)(F)F	3301
69	CNc1cc(-c2cccc(C(=O)N3CCOCC3)c2)ncn1	3862
70	Nc1ncnc2c1ncn2[C@@H]1O[C@H](C(=O)NCCCN2CCCC2=O)[C@@H](O)[C@H]1O	4186
71	CC1(C(=O)NS(=O)(=O)c2cccc(F)c2)CCN1C(=O)CC1CCCCC1 (stereo unspecified)	4095
72	NC(Cc1ccc(C(F)(F)F)cc1)c1csc(Nc2ccc(C(=O)NCCCO)cn2)n1 (stereo unspecified)	3407
73	C[C@H]1CN([C@@H](C)CO)S(=O)(=O)c2ccc(Br)cc2O[C@H]1CN(C)Cc1ccccc1F	3848
74	O=C1CNC(c2ccccc2)C(c2ccccc2)N1 (stereo unspecified)	3630
75	COc1ccccc1N1CCN(C(=O)CCCn2c(=S)[nH]c3ccccc3c2=O)CC1	3710
76	C[C@@H]1CN([C@H](C)CO)C(=O)CCCn2cc(nn2)CO[C@H]1CN(C)S(=O)(=O)c1ccc(C#N)cc1	3820
77	O=C(COC(=O)c1ccco1)Nc1cccc(S(=O)(=O)N2CCOCC2)c1	3848
78	CCC(CO)Nc1ccn2nc(-c3cccc(Cl)c3)cc2n1 (stereo unspecified)	3919
79	CCc1cccc(CC)c1N1C(=O)COCC1=O	3674
80	CCN1C(=O)[C@H]2[C@@H](c3ccccc3)N[C@]3(CCCN(Cc4ccc(C)cc4)C3=O)[C@H]2C1=O	3732
81	O=c1[nH]c(=S)[nH]c2c1C(c1cccc(C(F)(F)F)c1)OC(CCc1ccccc1)C2 (stereo unspecified)	5903
82	O=C(O)C(=Cc1cccc([N+](=O)[O-])c1)c1ccccc1	3698
83	Cc1nccn1CC(=O)c1ccccc1	3046
84	Cc1nc(C(F)(F)F)ccc1C(=O)N1CCC1(C)C(=O)NS(=O)(=O)c1ccc(Cl)cc1 (stereo unspecified)	3597
85	Cc1ccc(S(=O)(=O)NC(=O)C2(C)CCN2C(=O)C2CCCCC2)cc1 (stereo unspecified)	3835
86	FC(F)(F)c1ccccc1Cc1c(C2CCCCC2)nc2ccc(Br)cn12	6066
87	CN(C)CCN(C)C1CN(CCc2ccccc2)S(=O)(=O)C1 (stereo unspecified)	5991
88	Cc1ccc(Cn2c(C)c(C(=O)NCc3ccccc3C(F)(F)F)sc2=O)cc1	5596
89	Cc1ccc(S(=O)(=O)NCc2nnnn2-c2ccc(F)cc2)cc1	4615
90	CCCCCc1c(-c2cccc(Cl)c2)ncn1CCc1ccccc1OC	6477

Following part
No.	SMILES	Bead autofluor
91	COc1ccc(NC(=O)C2(C)Cc3c(-c4ccc(C(N)=O)cc4)ccnc3O2)cc1OC (stereo unspecified)	3620
92	S=C(NCCc1ccccc1)N1Cc2cc(N3CCOCC3)ccc2-n2nncc2C1	5585
93	Cc1ccc(NS(=O)(=O)c2ccc(C)c(NC(=O)c3ccc(S(=O)(=O)N4CCCCCC4)cc3)c2)c(C)c1	3504
94	Cn1nc(C(C)(C)C)cc1NC(=O)C1(C)CCN1C(=O)Cc1ccc(-c2ccccc2)cc1 (stereo unspecified)	3802
95	CC(C)(C)c1ccc(CC(=O)N2CCC2(C)C(=O)NCc2ccc3c(c2)OCO3)cc1 (stereo unspecified)	3985
96	O=C1c2ccccc2C(c2nc3ccccc3[nH]2)N1c1ccccn1 (stereo unspecified)	4261
97	CCCN1CCC(C)(C(=O)Nc2ccccc2Oc2ccccc2)C1 (stereo unspecified)	4204
98	C[C@H]1CN([C@@H](C)CO)S(=O)(=O)c2ccc(Br)cc2O[C@H]1CN(C)Cc1ccc(F)cc1	3809
99	CN(C)c1ccc(NC(=O)Nc2ccc3c(c2)c(=O)n(C)n3Cc2ccccc2)cc1	3484
100	CC(O)(c1ccc(F)c(F)c1)c1nc(-c2cccc3cccnc23)cs1 (stereo unspecified)	3623
101	COc1ccc2sc(-c3ccccc3OC)c(-c3ccc(SC)cc3)c2c1	5041
102	COc1cc(NC(=O)CNC(=O)Cn2cnc3sc(C)c(C)c3c2=O)cc(OC)c1OC	2930
103	CN(CC(=O)Nc1ccc(F)c(F)c1F)C(=O)C1CCCN1C(=O)c1cccs1 (stereo unspecified)	3931
104	Cc1cccc(C)c1NC(=O)C1(C)CCC(=O)N1CCCn1ccnc1 (stereo unspecified)	5408
105	C[C@H]1CN([C@@H](C)CO)S(=O)(=O)c2ccc(C#CC3CC3)cc2O[C@H]1CN(C)C(=O)c1cccnc1	3421

Fetched one by one from the entries so far, 2 records:
No.	SMILES	Bead autofluor
92	S=C(NCCc1ccccc1)N1Cc2cc(N3CCOCC3)ccc2-n2nncc2C1	5585
98	C[C@H]1CN([C@@H](C)CO)S(=O)(=O)c2ccc(Br)cc2O[C@H]1CN(C)Cc1ccc(F)cc1	3809

(cont.)
No.	SMILES	Bead autofluor
106	CC(=O)Nc1ccc(SCC(=O)NC(=O)c2ccc(Cl)cc2)cc1	3221
107	C1CN(P2(N3CC3)=NP(N3CC3)(N3CC3)=NP(N3CC3)(N3CC3)=N2)CCO1 (stereo unspecified)	3817
108	Cc1c(C(=O)NCc2cccs2)sc(=O)n1Cc1ccc(S(C)(=O)=O)cc1	5684
109	CC1=C(C(=O)N(C)C)CC(CC(=O)NCc2cccc3ccccc23)C(=O)N1Cc1ccc(C(C)(C)C)cc1 (stereo unspecified)	6330
